VDR inhibitor: inhibitors of human vitamin D receptor. P11473. VDR-SRC2-3 peptide fluorescence polarization, 2 h. Potency, µM, without a hit: max response, negative = inhibition, hits mostly inhibitors. 400,000 compounds, 0.93% hits; active means well fitted inhibition curve with a large enough effect; inconclusive means small, poorly fitted or top-dose-only effect, or another doubt; inactive means no such curve, though single readings can be large or run the other way; further: series mostly up to about 120 µM
Target sequence (P11473 whole entry, looked up): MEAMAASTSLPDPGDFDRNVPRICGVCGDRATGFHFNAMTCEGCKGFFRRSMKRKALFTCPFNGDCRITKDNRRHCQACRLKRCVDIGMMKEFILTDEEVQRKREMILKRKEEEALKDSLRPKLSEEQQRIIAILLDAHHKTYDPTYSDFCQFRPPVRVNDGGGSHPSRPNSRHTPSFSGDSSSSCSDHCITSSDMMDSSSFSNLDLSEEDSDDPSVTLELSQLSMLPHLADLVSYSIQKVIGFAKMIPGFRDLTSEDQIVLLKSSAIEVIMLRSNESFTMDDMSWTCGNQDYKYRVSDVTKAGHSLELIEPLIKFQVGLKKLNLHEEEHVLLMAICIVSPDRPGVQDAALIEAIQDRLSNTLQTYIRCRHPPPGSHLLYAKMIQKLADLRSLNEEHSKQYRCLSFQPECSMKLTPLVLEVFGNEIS
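After 23 nl compound addition and a short centrifugation, plates sat for 2 hours at ambient temperature; polarization of fluorescence then indicated loss of VDR binding to peptide SRC2-3.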
Starred values were filed as active, the others as inactive; ? = inconclusive; & = joins results of further samples; [ ] = dose if it differs, or a comment. On the % scale 0 is the no-effect control and ±100 the full control effect; potency means the concentration at half of the fitted maximal effect. A portion of the library. The share of hits here may be higher or lower than overall.

No.	VDR inhibitor	SMILES
1	-2%	CCOC(=O)[C@H](CCc1ccccc1)N[C@@H](C)C(=O)N1CCC[C@@H]1C(=O)O
2	3%	CCc1nnc(NC(=O)CSc2nnc(-c3c[nH]c4ccccc34)n2CC)s1
3	1%	Cc1nc(-c2coc3cc(C)c(N=O)c(O)c3/c2=N\N)cs1
4	2%	CCN(CC)S(=O)(=O)c1ccc(S(=O)(=O)N2CCCC(C(=O)NC3CC3)C2)cc1 (stereo not drawn)
5	5%	O=C(NC1CC(=O)N(c2ccc(Cl)cc2)C1)C(=O)c1c[nH]c2ccccc12 (stereo not drawn)
6	-9%	O=C(c1cccc(Br)c1)c1coc2ccc(O)cc12
7	0%	O=C(CSc1cccc2cccnc12)Nc1ccc(S(=O)(=O)N2CCOCC2)cc1
8	?	O=C(COC(=O)C1CCCN1C(=O)c1cccs1)c1ccccc1 (stereo not drawn)
9	31%[activator]	CSc1ccccc1NC(=O)CN1c2ccccc2CC1C (stereo not drawn)
10	-15%	Cc1ccc(S(=O)(=O)N(CC(=O)NCc2ccco2)Cc2ccccc2F)cc1
11	10%	CCc1ccc(S(=O)(=O)NCc2nc3cccnc3n2Cc2cccc(OC)c2)cc1
12	-5%	COc1ccc(N(C(=O)c2snc(C(N)=O)c2N)C(C(=O)NC2CCCC2)c2ccc(C)o2)c(OC)c1 (stereo not drawn)
13	5%	NS(=O)(=O)c1ccc(CCNC(=O)NC2(C(F)(F)F)Oc3ccccc3O2)cc1
14	?	Cc1ccc(CN2CCNC(=O)C2CC(=O)NC2CCCCCC2)cc1 (stereo not drawn)
15	-28%	S=C(Nc1ccccc1Oc1ccccc1)Nc1cccc(Cl)c1Cl

The results go on.
No.	VDR inhibitor	SMILES
16	-19%	CC(=O)Oc1cc2c(c3ccccc13)CCC2=O
17	7%	O=[N+]([O-])c1ccc(Cc2ccncc2)cc1
18	-13%	Cc1ccc(NC(=O)Nc2ccc3c(c2)nc(C)n3C)cc1
19	-12%	Clc1ccccc1Cn1c(-c2cccs2)nc2ccccc21
20	2%	O=C(/C=C/c1ccccc1)NC(=S)Nc1ccc(N2CCOCC2)cc1
21	-6%	CCC(=O)N1CCCC(C(=O)c2ccc(-c3ccccc3)cc2)C1 (stereo not drawn)
22	-17%	CCN1C(=O)/C(=C2/SC(C)=C(C)N2CC)SC1=S
23	0%	O=C(NCc1cccnc1)c1cc(-c2ccc(Cl)cc2)oc1C(F)(F)F
24	1%	O=C(CCNC(=O)c1ccccc1Cl)Nc1ccc(S(=O)(=O)Nc2ncccn2)cc1
25	-2%	Cc1cc(=O)c(C(=O)O)nn1-c1ccccc1F
26	17%	O=C(NCC1CCN(Cc2cccc(F)c2)CC1)c1cc2ccc3cccnc3c2[nH]1
27	-12%	Cc1ccc(C(=O)OCC(=O)NCc2ccco2)cc1S(=O)(=O)N1CCOCC1
28	7%	FCCCOc1ccc(-c2nccc(-c3ccc(Cl)cc3)n2)cc1
29	-3%	O=C(Nc1ccccc1O)c1ccc(Cl)cc1
30	-13%	Cc1nc2sc(C(c3cccs3)N3CCN(c4cccc(Cl)c4)CC3)c(O)n2n1 (stereo not drawn)

Further entries follow:
No.	VDR inhibitor	SMILES
31	-16%	CCOC(=O)CSc1nc(C)cc(C)c1C#N
32	-8%	CCOC(=O)Cc1csc(N/C(=N/S(=O)(=O)c2ccc(F)cc2F)c2ccccc2)n1
33	-13%	CCN(CC(=O)NC(C)C)C(=O)CCNC(=O)c1ccc(Cl)cc1
34	-16%	CC1CCN(C(=O)CSc2nnc3ccc(-c4cccnc4)nn23)CC1
35	-4%	Nc1ncn(C2C[C@H](O)[C@@H](CO)O2)c(=O)n1 (stereo partly drawn)
36	-11%	CCn1c(SCCOc2ccccc2F)nc2ccccc21
37	-11%	Cc1nn(CC(=O)N2CCN(C34CC5CC(CC(C5)C3)C4)CC2)c(C)c1[N+](=O)[O-]
38	0%	Cc1ccc(NC(=O)C(=O)NCCCN2CCOCC2)cc1C
39	23%	Cc1nnc(NC(=O)C2CCCC2)s1
40	7%	CCOC(=O)Cc1csc(NC(=O)Nc2ccccc2)n1
41	-10%	Cc1ccc(-c2csc(N3CCN(c4cc5c(cc4Cl)nc(-c4ccncc4)n5CCOCCO)CC3)n2)cc1
42	4%	COc1ccc(S(=O)(=O)N(CCCN2CCCC2=O)Cc2cc3c(C)ccc(C)c3[nH]c2=O)cc1
43	7%	O=C(NNC(=O)C1CC1)c1cc(Cl)nc2ccccc12
44	-13%	Cc1nn(CC(=O)NC2CCCCC2)c(=O)c2cccn12
45	-7%	CC(=O)c1ccc(-c2ccc(C(=O)NCC3CCCO3)o2)cc1 (stereo not drawn)

(listing goes on)
No.	VDR inhibitor	SMILES
46	2%	Cc1ccc(C)c(NC(=O)CSc2nnc3[nH]c(=O)cc(-c4ccccc4)n23)c1
47	-22%	Nc1ccc2nc(N3CCOCC3)sc2c1
48	16%	O=C(Cn1ncc2c3ccccc3n(Cc3ccccc3)c2c1=O)NCc1cccs1
49	5%	Cc1c(NC(=O)CSc2nc(-c3ccco3)cc(C(F)(F)F)n2)c(=O)n(-c2ccccc2)n1C
50	-4%	COCCCn1c2nc3ccccc3nc2c2c(=O)n(Cc3ccc(Cl)cc3)cnc21
51	-1%	CCc1ccc(OCCCn2c(CCCNC(=O)C3CCCCC3)nc3ccccc32)cc1
52	12%	FC(F)(F)C1=CC(c2ccc(Cl)cc2)=NCCN1
53	7%	O=C(Nc1ccc2c(c1)OCO2)C1CC(=O)N(c2cccc(Cl)c2)C1 (stereo not drawn)
54	4%	CC(=O)N1CCN(CC(O)COc2ccc(OCc3ccccc3)cc2)CC1 (stereo not drawn)
55	10%	Cc1cccc(NC(=O)c2ccccc2NC(=O)C(C)(C)C)n1
56	-13%	CN(C(=O)Nc1ccc(S(=O)(=O)N(C)C)cc1)C1CCCCC1
57	3%	O=C(Cc1ccccc1)Nc1ccccc1N1CCOCC1
58	-11%	CCCC(=O)NC(c1ccc(C)cc1)c1ccc2cccnc2c1O (stereo not drawn)
59	13%	CCN(CC)S(=O)(=O)c1ccc(NC(=O)C(OC)c2ccccc2)cc1 (stereo not drawn)
60	2%	COC(=O)c1sccc1NC(=S)N1CCC(C(N)=O)CC1

New compounds follow:
No.	VDR inhibitor	SMILES
61	4%	Cn1nc(C(=O)Nc2ccc(S(=O)(=O)N3CCOCC3)cc2)c2ccccc2c1=O
62	?	C/C(=N\NC(=S)NC(C)C)c1ccccc1OC(F)F
63	6%	Cc1ccccc1-c1nc(C#N)c(NCc2ccco2)o1
64	-6%	O=C(NNC(=S)Nc1ccc(F)cc1F)c1ccco1
65	?	Cc1ccc(-c2nn(-c3ccccc3)cc2CN(Cc2ccccc2)C(=O)CCC(=O)O)o1
66	7%	O=C(O)COc1c(Cl)cc(/C=C2\NC(=O)NC2=O)cc1Br
67	-23%	NC(=NCCc1c[nH]c2ccccc12)NS(=O)(=O)c1ccc2ccccc2c1
68	-8%	O=[N+]([O-])c1ccccc1-c1cc(-c2cc(Cl)ccc2O)n[nH]1
69	-9%	COc1ccc(C2=NOC(Cn3nc(-c4ccccc4)cc3C(=O)NCc3cccs3)C2)cc1 (stereo not drawn)
70	14%	O=C(Cn1c(=O)n(CC2CCCO2)c(=O)c2ccccc21)c1ccccc1 (stereo not drawn)
71	-4%	COc1ccc(CCNC(=O)C(=O)Nc2ccc(C)c(C)c2)cc1
72	18%	CCC(=O)Nc1ccc(CC)cc1-c1nc2ccccc2n(CC(=O)Nc2cccc(OC)c2)c1=O
73	2%	O=C1Nc2cc(Br)ccc2C1(O)c1ccccc1O (stereo not drawn)
74	3%	Cc1cccc(NC(=O)C(=O)NCC(c2cccnc2)N2CCOCC2)c1 (stereo not drawn)
75	-12%	CCn1cnc2scc(-c3ccc(OC)cc3)c2c1=O

The list goes on.
No.	VDR inhibitor	SMILES
76	-7%	CN(C(=O)c1cccc(NC(=O)Cc2cccc(NC(=O)C3CCN(C(=O)C4CC4)CC3)c2)c1)C1CC1
77	22%	NS(=O)(=O)c1ccc(NC(=O)Nc2cccc3ccccc23)cc1
78	21%	COc1ccc(C)cc1NC(=O)CN1C(=O)CCc2cc(S(=O)(=O)N3CCOCC3)ccc21
79	-14%	COc1cc2c(cc1NC(=O)COC(=O)[C@@H](NS(=O)(=O)c1ccccc1)C(C)C)oc1ccccc12
80	-3%	COc1cccc2c(N/N=C/c3ccco3)cc(C)nc12
81	-8%	COCCOC(=O)C1=C(C)Nc2ncnn2C1c1ccco1 (stereo not drawn)
82	-14%	Fc1ccc(NC(=S)Nc2ccccc2OC(F)F)cc1Cl
83	-10%	CC1(C)CC(=O)C(C2C3=C(CC(C)(C)CC3=O)OC3=C2C(=O)CC(C)(C)C3)=C(O)C1
84	-10%	Cc1onc(-c2ccccc2)c1C(=O)N1CCN(c2ccc([N+](=O)[O-])cc2)CC1
85	6%	N#CCCN1CCN(S(=O)(=O)c2ccc(S(=O)(=O)NC3CC3)cc2)CC1
86	18%	O=[N+]([O-])c1cccc(-c2csc(N/N=C/c3cccc(O)c3)n2)c1
87	18%	COc1ccccc1CNC(=O)CSc1nnc2ccc(-c3cccnc3)nn12
88	1%	CCc1cccc(N2C(=O)CS(=O)(=O)C23C(=O)N(Cc2ccccc2)c2ccc(C)cc23)c1 (stereo not drawn)
89	8%	CC(=O)N/C(=C\c1ccccc1)C(=O)Nc1ccccc1C
90	-2%	COC(=O)c1ccc(NC(=O)C2CCCN(S(=O)(=O)c3cnc[nH]3)C2)cc1 (stereo not drawn)

(cont.)
No.	VDR inhibitor	SMILES
91	11%	CCOC(=O)C1=C(C)N=C2SC=C(C)N2C1c1ccc(OC)cc1 (stereo not drawn)
92	-4%	Cc1ccc(C(=O)Nc2sc3c(c2C(=O)O)CCC(C)C3)o1 (stereo not drawn)
93	1%	Fc1ccc(/C=N/Nc2ncnc3nc[nH]c23)cc1F
94	11%	COc1ccc(S(=O)(=O)N2CCOC2CNC(=O)C(=O)NCCc2ccc(OC)c(OC)c2)cc1C (stereo not drawn)
95	11%	CC(=O)c1ccc(N2CCN(C(=O)CCNC(=O)Cn3ccc4ccccc4c3=O)CC2)cc1
96	-13%	CCCCNC(=S)N1CCN(c2ccccc2Cl)CC1
97	-2%	CC1CN(C(=O)C(c2ccccc2)c2ccccc2)CC(C)O1 (stereo not drawn)
98	5%	COc1ccc(OC)c(NC(=O)c2noc3c2CCCC3)c1
99	1%	C=CCSc1nc2sc(C)c(C)c2c(=O)n1N
100	25%	Cc1nc2sc(-c3ccccc3)cc2c(=O)n1/N=C/N(C)C
101	2%	O=C(OCc1nnc(-c2ccccc2)o1)c1ccc(CO)cc1
102	1%	CCOC(=O)c1cccc(Nc2nc(C)cc(C)n2)c1
103	4%	COc1ccc(CCNC(=O)c2ccc3c(c2)N(Cc2ccc(Cl)cc2)CCS3)c(OC)c1
104	-4%	COc1ccc(/C=N/NC(=O)c2ccccc2[N+](=O)[O-])cc1CN1CCc2cc(OC)c(OC)cc2C1C (stereo not drawn)
105	?	Cc1ccnc(NC(c2ccccn2)c2c(C)[nH]c3ccccc23)c1 (stereo not drawn)

Other structures.
No.	VDR inhibitor	SMILES
106	-8%	O=S(=O)(NCc1ccc2c(c1)OCO2)c1cccc2nsnc12
107	-12%	Cc1cccc2cc(C#N)c(NCCNC(=O)COc3ccccc3)nc12
108	-7%	CCOC(=O)c1ccc(Oc2coc3cc(O)ccc3c2=O)cc1
109	-12%	COc1ccc2cc(C[C@@H]3CC[C@@H](CNC(N)=O)O3)ccc2c1
110	22%	O=C(Nc1ccc(OCC(=O)N2CCOCC2)cc1)c1ccccc1F
111	9%	CN1CCN(C(=O)c2c(O)c3cccc4c3n(c2=O)CCC4)CC1
112	-6%	COc1ccc(C(=O)N2CCc3ccccc32)cc1S(=O)(=O)N1CCOCC1
113	0%	COc1ccccc1NC(=O)COC(=O)[C@@H]1CCCN1C(=O)c1cccs1
114	3%	CC(C)NC(=O)C(=O)NNC(=O)CCc1ccccc1
115	3%&10%	CCOC(=O)C1=C(C)Nc2ncnn2C1c1ccc(N(C)C)cc1 (stereo not drawn)
116	-2%	Cc1cc2oc(C(=O)Nc3sc4c(c3C(=O)NCc3ccccc3)CCCC4)cc(=O)c2cc1C
117	-22%	COc1ccccc1S(=O)(=O)N1CCN(c2nc(-c3cccs3)nc3ccccc23)CC1
118	-29%	COc1cc(OC)cc(C(=O)Nc2ccc(S(=O)(=O)N3CCOCC3)cc2)c1
119	25µM*	N#CC1=C(N)C(C#N)(C#N)C(c2cccnc2)C2CC(c3ccccc3)CC=C12 (stereo not drawn)
120	11%	CCn1c(CC(=O)Nc2ccc(C)c(Cl)c2)nnc1SCCOc1ccc(OC)cc1
121	12%	CCN[C@H]1C[C@H](C)S(=O)(=O)c2sc(S(N)(=O)=O)cc21
122	25%	O=C(COC(=O)C1CCC(N2C(=O)C3C4CCC(C4)C3C2=O)CC1)c1ccc(F)cc1 (stereo not drawn)
